Source: PubChem (Center for Chemical Genomics, University of Michigan)
CDC25B-CDK2 inh = human CDC25B-CDK2/CyclinA binding inhibition. P30305+P24941. HTRF CDC25B-CDK2/CyclinA binding, anti-His/anti-Flag; active compounds read high. z-score (concentration not given with the values). actives 0.72% (n = 94,000). AID 1259370;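 also: score is relative to mean and SD of negative controls; strong numbers were not always called active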
HIV TAR-Tat = HIV-1 TAR-Tat binding disruption | HIV-1 TAR RNA, Tat peptide displacement FRET; active compounds read high | actives 0.6% (n = 100,000) | z-score (concentration not given with the values);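 also: score is relative to mean and SD of negative controls; some compounds called inactive have numbers as strong as hits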
An asterisk follows results filed as active; · = no result given.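 The calls were made as follows: active = z-score from 3 up in half or more of its runs; inactive = the rest.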

Each structure is followed by: HIV TAR-Tat | CDC25B-CDK2 inh
- CC(C)COC(=O)c1ccc(N2CC(O)=C(c3nc4ccccc4n3C)C2=N)cc1
    -1.73 | -1.01
- Cc1ccc(-n2nc(C)c3c(C)cc(=O)n(Cc4cc(=O)n5cc(Cl)ccc5n4)c32)cc1
    0.89 | ·
- Cc1noc2ncnc(NC3CCCC(C)C3C)c12 (centres undefined)
    0.27 | ·
- CCOc1ccc(C2NC(C(=O)O)CS2)cc1OC (centres undefined)
    · | 0.17
- O=C(NC1CCCCC1)C(NS(=O)(=O)c1ccc(Br)s1)c1ccccc1 (centres undefined)
    · | -3.22
- CN(C(=O)c1cc(C(C)(C)C)nn1C)c1nnc(C(F)(F)F)s1
    · | -2.78
- O=S(=O)(c1ccc2ccccc2c1)N1CCN(c2ncnc3sc4c(c23)CCCC4)CC1
    · | -0.87
- CC1(C)OC(=O)C(=CNc2ccccn2)C(=O)O1
    · | -1.65
- COc1cc(CSc2ncc(CO)n2Cc2ccccc2)cc(OC)c1
    0.1 | ·
- Clc1ccc(N=Cc2ccccc2)cc1
    · | -1.24
- O=C(NC(CO)C(=O)O)c1cncc(Br)c1 (centres undefined)
    0.1 | -0.67
- CC(=O)C(C(=O)c1ccccc1)C1c2ccccc2Oc2ccccc21 (centres undefined)
    · | -0.14
- CCOC(=O)c1c(S(=O)(=O)Nc2ccccc2)c(C)n(C)c1C
    1.31 | ·
- O=c1c(NCCc2c[nH]c3ccccc23)nccn1-c1ccc(Br)cc1
    -1.49 | ·
- Cc1oc(-c2ccccc2)nc1COc1ccccc1-c1nnc(-c2ccccc2)o1
    0.92 | ·
- CC1(C)Cc2c(sc(NC(=O)COc3ccccc3)c2C#N)C(C)(C)N1
    1.24 | -0.5
- CCOC(=O)C1=C(C)NC2=C(C(=O)c3ccccc32)C1c1ccc([N+](=O)[O-])o1 (centres undefined)
    -0.64 | ·
- C/C1=C\CCC(=O)C2CC(C)(C)C2CC1 (centres undefined)
    1.38 | ·
- O=C(Nc1snnc1C(=O)N1CCOCC1)N1CCCCC1
    1.56 | ·
- CS(=O)(=O)Oc1ccc2nonc2c1
    · | -0.66
- CC(=O)Nc1ccc(C)c(NC(=S)Nc2ccc(Cl)c(Cl)c2)c1
    · | 0.32
- O=C(CC12CC3CC(CC(C3)C1)C2)NCc1ccc2c(c1)OCO2
    · | -1.12
- CCOC(=O)c1ccc2[nH]c(CSc3n[nH]c(-c4ccc(OC)cc4)n3)cc(=O)c2c1
    -0.41 | ·
- Cc1n[nH]c(=O)c2nn(-c3ccccc3)c(C)c12
    0.76 | 0.76
- Cc1cc(C(=O)N2CCN(Cc3ccc4c(c3)OCO4)CC2)nn1C
    · | -1.66
- CC(C(=O)NC1CC1)n1ccc2cc(S(=O)(=O)N3CCCC3)ccc21 (centres undefined)
    0.14 | ·
- c1ccc(-n2ncc3c(NCCCN4CCOCC4)ncnc32)cc1
    · | -1.63
- OC(c1ccccc1)c1nc2ccccc2[nH]1 (centres undefined)
    1.35 | 0.17
- CC(C)CCCC(C)C1CCC2C3CC(=O)[C@H]4C[C@@H](O)CC[C@]4(C)C3CC[C@]12C (some centres undefined)
    2.09 | ·
- CNC(=O)c1c(NC(=O)Cc2coc3ccc(OC)cc23)sc2c1CCCC2
    -2.95 | -1.22
- Cc1nc2sccn2c(=O)c1S(=O)(=O)Nc1ccc(F)cc1Cl
    -0.76 | ·
- O=C(Nc1ccccc1)N1CC=C(c2c[nH]c3ccccc23)CC1
    -6.68 | ·
- O=c1c2cccnc2nc(SCc2ccccc2F)n1-c1ccccc1
    0.13 | -0.04
- OC(C#Cc1ccccc1)(c1ccccc1)c1ccccc1
    1.3 | -1.76
- O=C(CCn1c(=O)c2ccccc2n(Cc2cc(=O)n3ccccc3n2)c1=O)NCc1ccco1
    · | -0.32
- O=C(Nc1ccc(N2CCOCC2)c(Cl)c1)c1ccco1
    2.5 | ·
- CC(=O)N1CC2(C)CN(C(C)=O)CC(C)(C1)C2
    0.73 | 0.67
- Cc1ccc(Nc2nnc(-c3cc4c(ccc5ccccc54)oc3=O)s2)cc1
    · | -0.42
- CCn1c(C)ccc(-c2noc(CCC(=O)Nc3nnc(C(C)C)s3)n2)c1=O
    -0.08 | -0.98
- CN(NC(=O)Nc1ccc(Cl)cc1)c1cnn(C)c(=O)c1Cl
    · | -0.86
- CCCc1nnc(NC(=O)C(CC)Sc2nnc3c4ccccc4n(C)c3n2)s1 (centres undefined)
    1.94 | 0.73
- CC(C)Oc1ccccc1-c1nc(SCC(=O)c2ccc(Br)cc2)n[nH]1
    2.51 | -0.8
- CCCOC(=O)Cn1nnc2sc3c(c2c1=O)CCCC3
    1.11 | 1.58
- CCCOc1ccc(N2C(=O)CC(N3CCN(C(=O)OCC)CC3)C2=O)cc1 (centres undefined)
    -0.57 | -1.2
- COc1ccc(C2=Nn3c(nnc3-c3ccc(Cl)cc3)SC2)cc1OC
    1.08 | ·
- O=c1[nH]c2ccc(S(=O)(=O)N3CCCC3)cc2[nH]c1=O
    -0.23 | -0.04
- CCOc1ccc(-n2ccnc(OC)c2=O)cc1
    1.3 | -0.91
- O=C(Nc1nnc(N2CCCC2)s1)Nc1cc(F)ccc1F
    1.05 | -1.74
- CCn1c(C(=O)N2CCC(C(=O)NC(C)CCc3ccccc3)CC2)cc2sccc21 (centres undefined)
    · | -1.09
- CCCn1c(=O)c2sccc2n2c(CCCC(=O)N3CCC(C(N)=O)CC3)nnc12
    0.63 | ·
- CCn1c(NCc2sccc2C)nc2ccccc21
    -0.7 | -1.37
- O=c1c2ccccc2n2c(-c3ccsc3)nnc2n1Cc1ccc(F)cc1
    1.16 | 0.68
- COc1cc(CNc2ccc3[nH]c(=O)[nH]c3c2)cc(Br)c1OCc1cccs1
    · | 8.87*
- COc1ccc(Cl)cc1NS(=O)(=O)c1ccc(CN2C(=O)c3cccnc3C2=O)s1
    -0.07 | ·
- Cc1ccc(C)c(OCCn2cc(C(=O)C3CC3)c3ccccc32)c1
    2.24 | 0.6
- Cc1c(NC(=O)c2noc3c2CCc2ccccc2-3)c(=O)n(-c2ccccc2)n1C
    · | 0.44
- N#CC(C#N)=C(N)Nc1ccccc1
    · | -0.1
- Cn1cc(S(=O)(=O)N2CCCC2)cc1C(=O)NCC1CCCO1 (centres undefined)
    1.2 | ·
- COc1cccc(NC(=S)NCCO)c1
    · | -1.74
- CCn1c(=O)c2sccc2n2c(CCCC(=O)N3CCN(c4ccccn4)CC3)nnc12
    1.18 | ·

New compounds follow.
Each structure is followed by: HIV TAR-Tat | CDC25B-CDK2 inh
- Cc1cc(-n2ccn3c(=O)[nH]nc3c2=O)ccc1Br
    2.79 | -1.83
- Cc1nc(N2CCCC2)cc(N2CCN(S(=O)(=O)c3cc(C(C)C)ccc3C)CC2)n1
    -0.58 | -0.68
- CN1/C(=C\c2cc[n+](C)cc2)Sc2ccccc21
    7.52* | 0.14
- CCOc1ccc(-c2c(NCCOC)oc3c2c(=O)oc2ccc(C)cc23)cc1
    1.15 | ·
- CCn1cc(C2=NCCO2)c2ccccc21
    2.06 | ·
- O=S(=O)(c1cnc[nH]1)N1CCN(c2ccc(F)cc2)CC1
    1.06 | 0.7
- CCOC(=O)N1CCN(C(=O)c2cn(CC)c3ccc(S(=O)(=O)N4CCCC4)cc3c2=O)CC1
    0.4 | 0.62
- O=C(c1cc2ccccc2c(=O)s1)N1CCOCC1
    · | -0.14
- CCc1ccc(S(=O)(=O)c2c[nH]c3ccccc3c2=O)cc1
    -5.48 | -0.87
- Cc1cc(C)n(-c2ccc3cccc(O)c3n2)n1
    · | -2.15
- CC(CNC(=O)C1CCCN(C(=O)c2cc3sccc3n2C)C1)c1ccccc1 (centres undefined)
    · | -3.01
- CCn1cc(S(=O)(=O)c2cc(C)cc(C)c2)c(=O)c2cc(F)c(N3CCN(C)CC3)cc21
    0.43 | ·
- O=C1SC(Nc2cccc(F)c2)C(=O)N1c1ccccc1 (centres undefined)
    2.13 | 0.49
- Cn1c(=O)[nH]c(=O)c2c1nc(NCCCN1CCOCC1)n2CCCc1ccccc1
    0.42 | -1.56
- CCOC(=O)c1cc(COc2c(Cl)cccc2Cl)on1
    · | -1.94
- O=c1c2cccnc2[nH]c(=S)n1CCCN1CCOCC1
    · | -0.74
- CCC(Sc1nc2ncccc2[nH]1)C(=O)Nc1c(C)cc(C)cc1C (centres undefined)
    2.09 | ·
- CCC(C)NS(=O)(=O)c1cc2c(cc1C)NC(=O)CO2 (centres undefined)
    1.71 | ·
- COCCOC(=O)C1=C(C)NC2=C(C(=O)CCC2)C1c1ccccc1Br (centres undefined)
    2.36 | -0.38
- COC(=O)c1sc(NC(=O)CSc2nc(=O)[nH]nc2C)nc1C
    -0.15 | -2.75

Nothing new here: entries from further up.
Each structure is followed by: HIV TAR-Tat | CDC25B-CDK2 inh
- CCC(Sc1nc2ncccc2[nH]1)C(=O)Nc1c(C)cc(C)cc1C (centres undefined)
    2.09 | ·
- CCC(C)NS(=O)(=O)c1cc2c(cc1C)NC(=O)CO2 (centres undefined)
    1.71 | ·
- COCCOC(=O)C1=C(C)NC2=C(C(=O)CCC2)C1c1ccccc1Br (centres undefined)
    2.36 | -0.38
- COC(=O)c1sc(NC(=O)CSc2nc(=O)[nH]nc2C)nc1C
    -0.15 | -2.75

Next records follow.
Each structure is followed by: HIV TAR-Tat | CDC25B-CDK2 inh
- CCOC(=O)N1CCN(C(=O)c2cn(C)c(=O)c3c2c2ccccc2n3C)CC1
    -0.77 | -0.79
- CC1CN(/C=C(\C#N)S(=O)(=O)Cc2ccc(Cl)cc2)CC(C)O1 (centres undefined)
    · | -0.95
- Cc1nc2c(ccc3nc(NC(=O)c4ccc(N5C(=O)CCC5=O)cc4)sc32)s1
    0.7 | -0.02
- O=C(Cn1c(=O)oc2cc(Cl)ccc21)N1CCN(c2ccccn2)CC1
    2.13 | ·
- CC(C)(C)C1=CC(=Nc2ccccc2NS(=O)(=O)Cc2ccccc2)C=C(C(C)(C)C)C1=O
    · | -2.52
- CCc1nnc2c3cnn(-c4ccccc4)c3ncn12
    · | -0.18
- O=C(Nc1ccc2c(c1)C(=O)c1ccccc1C2=O)c1ccc(-c2ccc(Br)cc2)o1
    · | -2.28
- COc1ccc(-c2noc(-c3nnn(-c4ccc(C(C)C)cc4)c3C)n2)cc1OC
    -1.11 | ·
- CCOC(=O)N1CCC(NC(=O)C2CCCCC2)CC1
    · | 0.61
- CC(=O)c1c(C)[nH]c(C(=O)NCC2COc3ccccc3O2)c1C (centres undefined)
    · | -0.75
- O=C(NCC(c1ccco1)N1CCCC1)c1cc(-c2ccc3c(c2)CCCC3)on1 (centres undefined)
    -0.26 | -0.79
- O=C(Cc1ccccc1)Nc1nn2c(-c3ccco3)nnc2s1
    -1.35 | -1.19
- C=CCC(NCc1cccs1)c1ccco1 (centres undefined)
    · | 1.74
- CCOC(=O)C(N)c1ccccc1 (centres undefined)
    · | -1.31
- CSc1ccc(NC(=O)N2CCN(c3ccc(C(F)(F)F)cn3)CC2)cc1
    -1.75 | -1.15
- Cc1csc(-n2[nH]c(C)c(CCC(=O)Nc3ccc(Cl)cc3)c2=O)n1
    -0.2 | -2.62
- COCCNc1cc(N2CCCC2)c2noc3c2c1C(=O)c1ccccc1-3
    -1.21 | -2.06
- Cc1cc(=O)n2[nH]c(NC(=O)C3CC3)nc2n1
    1.17 | -1.45
- Cc1ccc(C2Nn3c(C)nnc3SC2C(=O)N2CCCCC2)cc1 (centres undefined)
    1.75 | -1.64
- O=C1CC(c2cc(F)cc(F)c2)c2c(nc(SCc3ccc(Cl)cc3)[nH]c2=O)N1 (centres undefined)
    -0.81 | -1.78
- Cc1ccc(-c2onc(C)c2C)cc1S(=O)(=O)Nc1cccc(Cl)c1
    1.59 | ·
- CCS(=O)(=O)N1CCC2(CC1)OC(=O)C(C)=C2C(=O)N1CCN(c2ncccn2)CC1
    1.28 | ·
- CCN1CCN(C(=O)C23CCC(C)(C(=O)C2)C3(C)C)CC1 (centres undefined)
    · | -1.08
- Cn1cnc2c(=O)oc3ccc(S(=O)(=O)NCCC4=CCCCC4)cc3c21
    -0.25 | ·
- COc1ccc(Nc2nc(Nc3ccc(F)cc3)nc3c2cnn3C)cc1Cl
    0.29 | ·
- Cc1nc2nc(Cc3cccc(F)c3)nn2c(Nc2ccc3c(c2)OCCO3)c1C
    1.72 | ·
- COc1ccc(NC(=O)N(Cc2c[nH]c3ccccc23)C2CCCCCC2)c(OC)c1
    · | -1.51
- Cc1ccc(C2C3=C(Nc4c2c(=O)[nH]c(=O)n4C)c2ccccc2C3=O)cc1 (centres undefined)
    -17.9 | -11.9
- CCOc1ccc2ncc(S(=O)(=O)c3ccc(Cl)cc3)c(N3CCN(C)CC3)c2c1
    1.54 | -1.65
- O=C(CSc1ccc2nnc(-c3ccc(F)cc3)n2n1)Nc1ccc(F)cc1F
    · | -1.72
- O=S(=O)(c1ccc(-c2cnc(C3CC3)o2)cc1)N1CCN(c2ccccc2F)CC1
    1.08 | ·
- Oc1c(CN2CCCC2)cc(COCc2ccccc2)c2cccnc12
    · | -2.76

Compound profiles, as listed above.
O=S(=O)(c1ccc(-c2cnc(C3CC3)o2)cc1)N1CCN(c2ccccc2F)CC1 is listed with HIV TAR-Tat: 1.08; CDC25B-CDK2 inh: ·
Oc1c(CN2CCCC2)cc(COCc2ccccc2)c2cccnc12 is listed with HIV TAR-Tat: ·; CDC25B-CDK2 inh: -2.76

Not a hit list. About 0.94% of those tested had a hit in this group.
